KCNQ2 enhance: potentiators of rat KCNQ2 potassium channel; 310,000 tested, 0.54% active; CHO-K1 KCNQ2, FluxOR thallium flux fluorescence; stronger effect = higher value; B-score at 10 µM; Potassium voltage-gated channel subfamily KQT member 2 (Rattus norvegicus), O88943;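 active means fluorescence ratio B-score at least 3 SD of library B-scores, with initial fluorescence B-score within 3 SD, cut at about 5.3 in these data; same plate scores as AID 2156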;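 further: B-score of peak minus minimum over baseline fluorescence ratio after K+ and Tl+ stimulus; positive B-score means potentiation of KCNQ2 with more thallium influx and brighter signal; only the inactives scoring about 0 or higher are listed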
Target sequence (O88943 whole entry, looked up): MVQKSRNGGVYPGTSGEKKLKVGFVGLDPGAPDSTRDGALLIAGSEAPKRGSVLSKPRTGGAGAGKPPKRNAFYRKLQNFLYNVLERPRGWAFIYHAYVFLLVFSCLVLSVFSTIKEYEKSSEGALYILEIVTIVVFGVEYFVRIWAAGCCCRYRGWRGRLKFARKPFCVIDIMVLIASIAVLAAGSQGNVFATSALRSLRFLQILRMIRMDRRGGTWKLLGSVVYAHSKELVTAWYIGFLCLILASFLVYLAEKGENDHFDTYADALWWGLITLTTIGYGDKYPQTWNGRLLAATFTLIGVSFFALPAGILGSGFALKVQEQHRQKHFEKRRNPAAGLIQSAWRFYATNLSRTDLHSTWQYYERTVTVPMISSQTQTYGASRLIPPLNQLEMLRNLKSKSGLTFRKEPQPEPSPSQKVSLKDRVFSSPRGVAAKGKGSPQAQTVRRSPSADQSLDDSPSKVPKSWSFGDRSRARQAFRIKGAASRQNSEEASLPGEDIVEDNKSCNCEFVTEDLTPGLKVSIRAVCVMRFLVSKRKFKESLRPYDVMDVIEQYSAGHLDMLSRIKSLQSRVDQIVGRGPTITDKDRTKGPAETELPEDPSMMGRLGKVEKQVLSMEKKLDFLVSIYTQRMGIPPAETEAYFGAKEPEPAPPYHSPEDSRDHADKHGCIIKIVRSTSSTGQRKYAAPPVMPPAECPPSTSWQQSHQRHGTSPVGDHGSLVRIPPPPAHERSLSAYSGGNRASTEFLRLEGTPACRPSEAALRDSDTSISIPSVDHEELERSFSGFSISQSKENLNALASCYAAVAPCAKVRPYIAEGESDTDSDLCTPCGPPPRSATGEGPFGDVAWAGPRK
KCNQ2 enhance baseline: second read-out of KCNQ2 enhance, no call of its own (marks repeat the call); B-score; compound at 10 µM; measured here: initial fluorescence intensity artifact check;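 brightness before thallium and not channel activity; 0 = typical well and far values either way flag optical interference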
An asterisk follows results filed as active. These rows are one share of the data. The share of hits here may be higher or lower than overall.

KCNQ2 enhance	KCNQ2 enhance baseline	SMILES
0.11	1.43	COc1ccc2[nH]c3c(c2c1)CCN1C(=O)N([C@@H](C)C(=O)NCc2ccc(C)cc2)C(=O)[C@]31C
5.95*	-0.39*	O=C(CSc1ccccc1)N/N=C/c1ccccc1O
0.04	1.76	CCN1CCN(Cc2c(O)c(Cl)cc3c(C)cc(=O)oc23)CC1
0.02	0.77	O=c1ccnc(Nc2ccc3c(c2)OCCO3)[nH]1
0.78	0.03	CC(C)OC(=O)c1ccc(N2C(=O)C3CC=CCC3C2=O)cc1 (stereo not given)
1.21	-1.64	CCC(C)NS(=O)(=O)c1ccc(OCC(=O)NCc2ccc(OC)cc2)cc1 (stereo not given)
0.07	-0.64	CCOc1ccc(NC(=O)CCNC(=O)Cn2cnc3ccccc3c2=O)cc1
0.11	-0.02	O=C1N=C(N2CCc3ccccc3C2)S/C1=C\c1ccc(O)cc1
0.03	0.74	CC(=O)Nc1cccc(NC(=O)Cc2nc(-c3ccccc3)sc2-c2ccc(C)cc2)c1
0.18	-1.11	Cc1c(NC(=O)CSc2nc3ccccc3n2C)c(=O)n(-c2ccccc2)n1C
0.56	-0.55	COc1ccccc1CC1CC(=O)N(c2cccc(Cl)c2C)C1=O (stereo not given)
1.46	0.84	O=C(CC1SC2=NCCN2C1=O)Nc1ccc(Cl)cc1 (stereo not given)
0.59	0.03	O=C(O)Cn1cc(/C=C2/NC(=O)N(c3ccc(Cl)cc3)C2=O)c2ccccc21
0.95	0.41	O=C(CN1N=C(c2ccccc2)CCC1=O)NCCCN1CCc2ccccc2C1
0.87	-0.33	Cc1cccc(NS(=O)(=O)Cc2ccccc2)n1
2.41	-1.09	CC(=O)N1CCN(c2ccc(NC(=O)c3ccco3)cc2Cl)CC1
0.73	1.08	Cc1cccc(NC(=O)C2COc3ccccc3O2)c1 (stereo not given)
0.76	-1.15	Cc1ccc(-c2noc(-c3cccs3)n2)cc1
0.69	-0.54	COC(=O)C1CCN(Cc2cc(=O)oc3cc(OC)ccc23)CC1
1.67	0.02	CCOC(=O)C1(C(F)(F)F)N=C(N(C)C)OC(N(C)C)=N1
0.53	-0.17	CCc1ccccc1NC(=O)CN(C)C(=O)CSc1nnc(Nc2cccc(C)c2C)s1
11.2*	-0.07*	COc1cc(C(=O)OCC(=O)NC2CCCC2)cc(NC(=O)c2ccco2)c1OC
0.46	-0.01	C=CCNC(=S)NCc1ccccc1
1.27	-0.36	Cc1cnc(NC(=O)CSc2nnc(Cc3ccccc3)n2C)s1
0.23	-0.6	Cc1cc(CC(=O)O)c(C)cc1CC(=O)O
0.02	0.58	COc1ccccc1NC(=O)c1ccc(-n2cncn2)nc1
0.84	-0.38	CCc1nnc(NS(=O)(=O)c2ccc(N/C=C\C(=O)c3ccc4ccccc4c3)cc2)s1
0.41	-0.53	COc1ccc(N(C(=O)CCl)C(C(=O)NC2CCCCC2)c2cccnc2)cc1 (stereo not given)
0.42	1.37	O=C(CSc1ncn[nH]1)NC1CCCc2ccccc21 (stereo not given)
1.76	-0.47	Cc1ccc(S(=O)(=O)CCSC(=N)N)cc1
1.04	-0.71	Cc1ccc(NC(=O)c2sccc2C)cc1[N+](=O)[O-]
0.01	-0.77	O=C(Nc1ccccc1N1CCCC1)C1CCN(S(=O)(=O)c2ccccc2)CC1
2.04	2.49	Cc1ccnc(NC2c3ccccc3C(=O)N2Cc2ccccc2Cl)c1 (stereo not given)
1.64	0.78	COc1ccc(NC(=O)Nc2ccc3c(c2)N(C)C(=O)CS3)cc1Cl
0.96	-1.01	C/C(=N\NC(=S)NCc1ccccc1)c1ccc(C(C)(C)C)cc1
1.01	-0.62	Cc1cc(C(=O)N/N=C/c2cccnc2)n[nH]1
1.74	-0.15	NC(=O)c1nsc(C(=O)N(Cc2cccnc2)C(C(=O)NCc2ccc(F)cc2)c2ccc(F)cc2)c1N (stereo not given)
0.68	-0.22	O=C(CCCn1c(SCc2cc(=O)n3ccccc3n2)nc2ccccc2c1=O)NCC1CCCO1 (stereo not given)
0.67	0.67	CCN1C(=O)c2ccccc2S(=O)(=O)c2ccc(C(=O)NCc3cccnc3)cc21
1.45	-0.91	CCC(C)NCCCOc1cc(Cl)ccc1Cl (stereo not given)
1.08	0.12	CCOC(=O)C1CCN(C(=O)c2ccc(OCC)c(OCC)c2)CC1
0.14	0.18	COc1ccc(CCNC(=O)CSc2nnc(CNC(=O)c3cccs3)o2)cc1OC
0.58	-0.8	S=C(Nc1ccc(Nc2ccccc2)cc1)NC1CCCCCC1
0.2	0.58	COc1ccc(Cc2nnc(NC(=O)CSc3ccc(C)cc3)s2)cc1
0.7	0.46	CC(=O)Cc1nsc(NC(=O)c2ccc(Br)o2)n1
1.32	-0.72	Cc1cccc(NC(=O)C2CCCN(c3cnccn3)C2)c1 (stereo not given)
0.02	1.33	CCN(C(C)=O)N(CC)c1nc(Cl)nc(NC(C)C)n1
1.59	0.62	CC(C)(C)OC(=O)N1CCN(c2ccc(NC(=O)c3ccco3)cc2)CC1
1.29	-0.36	Cc1nnc(SCC(=O)N2CCN(S(=O)(=O)c3ccccc3)CC2)n1Cc1ccccc1
0.8	-0.01	O=C(C(c1ccccc1)c1ccccc1)N1CCN(Cc2ccncc2)CC1
1.16	-0.6	CNc1ccc(C(=O)c2ccccc2C(=O)O)cc1[N+](=O)[O-]
2.05	-1.57	COC(=O)c1ccc(COC(=O)c2nn(C)c(=O)c3ccccc23)cc1
0.06	-1.29	O=C(Cn1cc2c(n1)CCCCC2)NCCCN1CCOCC1
0.38	1.08	COC(=O)c1cccc(N(CC(=O)NC2CCCC2)C(=O)CCC(=O)Nc2cc(C)on2)c1
0.96	0.69	CCN(CC)CCSc1nc(O)c(C(C)C)c(=O)[nH]1
1.86	0.25	Cc1oc2cc(OCC(=O)O)ccc2c(=O)c1Oc1ccccc1
0.4	1.75	Cc1cc2c(=O)n(NC(N)=O)c(C)nc2s1
0.39	0.02	O=C(Nc1cc(C(F)(F)F)ccc1Cl)c1ccncc1
0.65	0.44	C[n+]1ccc(C(=O)Nc2ccccc2Cl)cc1
1.27	0.38	COc1ccc(/C=N/NC(=O)c2ccn[nH]2)cc1Cn1cc([N+](=O)[O-])cn1

The listing continues.
KCNQ2 enhance	KCNQ2 enhance baseline	SMILES
2.06	1.4	Cn1c(SCC(=O)N2CCN(c3ccccc3)CC2)nnc1-c1ccccc1
0.12	0.56	CS(=O)(=O)N(CC(=O)N1CCN(c2ccc(F)cc2)CC1)c1ccc(F)c(Cl)c1
1.03	-0.15	Cc1oc2cc3oc(=O)c(CCC(=O)NCCC(=O)O)c(C)c3cc2c1C
1.36	2.08	CC1=C(C(=O)Nc2ccc(C(=O)N3CCN(c4cccc(Cl)c4)CC3)cc2)SCCO1
0.55	-0.29	Nc1nnc(SCC(=O)NN2C(=O)NC3(CCCCC3)C2=O)s1
1.23	-1.35	COc1cccc(/C=N/NC(=O)c2ccc(CN3c4cccc5cccc(c45)S3(=O)=O)cc2)c1
0.18	-0.24	FC(F)(F)c1cccc(-c2nn[nH]n2)c1
1.04	-0.81	Cc1ccc(C(=O)NCCCN2CCOCC2)c(Cl)c1
0.02	2.55	COc1ccc(NC(=O)c2ccccc2NC(=O)c2ccco2)cc1
0.12	1.27	COc1ccccc1-n1c(C)cc(/C=C2/C(=N)N3C(=NC2=O)SN=C3S(C)(=O)=O)c1C
0.27	-0.82	CCOC(=O)/C(C(N)=NCCCO)=C(/O)c1ccccc1
0.4	4.27	Cc1ccc(-n2c(C)cc(C(=O)CN3CCOCC3)c2C)cc1C
0.78	2.35	COc1ccc(OC)c(NC(=O)Nc2ccc3[nH]ccc3c2)c1
0.14	2.51	O=C(/C=C\Nc1ccc(S(=O)(=O)Nc2ncccn2)cc1)c1ccccc1
0.33	-0.95	CC(C)OCCCn1c(SCC(=O)N2CCc3ccccc32)nc2ccccc2c1=O

Look-ups from the list:
Value for O=c1ccnc(Nc2ccc3c(c2)OCCO3)[nH]1 under KCNQ2 enhance baseline: 0.77
Value for Cc1ccc(S(=O)(=O)CCSC(=N)N)cc1 under KCNQ2 enhance baseline: -0.47
Value for NC(=O)c1nsc(C(=O)N(Cc2cccnc2)C(C(=O)NCc2ccc(F)cc2)c2ccc(F)cc2)c1N (stereo not given) under KCNQ2 enhance baseline: -0.15
Value for O=C(Cn1cc2c(n1)CCCCC2)NCCCN1CCOCC1 under KCNQ2 enhance: 0.06
Value for CCOc1ccc(NC(=O)CCNC(=O)Cn2cnc3ccccc3c2=O)cc1 under KCNQ2 enhance baseline: -0.64
Value for C[n+]1ccc(C(=O)Nc2ccccc2Cl)cc1 under KCNQ2 enhance: 0.65
Value for Cc1ccc(C(=O)NCCCN2CCOCC2)c(Cl)c1 under KCNQ2 enhance: 1.04

Following part.
KCNQ2 enhance	KCNQ2 enhance baseline	SMILES
0.37	0.01	NC(=O)COc1ccc2cc(-c3ccccc3)c(=O)oc2c1
0.57	0.43	CC(=O)c1c(C)[nH]c(C(=O)OCC(=O)N2CC(=O)Nc3ccccc32)c1C
1.44	-1.01	O=C(NCC(c1ccco1)N1CCN(c2ccc(F)cc2)CC1)c1ccc2c(c1)OCO2 (stereo not given)
1.17	0.04	COc1nc(Nc2ccc([N+](=O)[O-])cc2)nc(NC(C)C)n1
1.41	0.25	CCCCn1cc(SCC(=O)O)c2ccccc21
1.19	-0.62	O=C(c1ccc(S(=O)(=O)N2CCOCC2)cc1)N(c1cccc(Cl)c1)C1C=CS(=O)(=O)C1 (stereo not given)
0.95	-0.05	COc1cc(/C=N/NC(=O)c2ccoc2C)cc(OC)c1OC
0.17	1.62	CCOC(=O)NC(C(Cl)(Cl)Cl)S(=O)(=O)c1ccccc1 (stereo not given)
1.45	-0.02	CC1OC(OC2C(CO)OC(OC3C(CO)OC(O)C(O)C3O)C(O)C2O)C(O)C(O)C1N[C@@H]1C=C(CO)[C@@H](O)C(O)[C@H]1O (stereo not given in full)
1.87	-0.92	N/C(Cc1ccc(Cl)cc1Cl)=N\OC(=O)c1ccccc1F
1.02	-0.51	CCCN(C(=O)COC(=O)CCOc1ccc(C)cc1)c1c(N)n(Cc2ccccc2)c(=O)[nH]c1=O
0.24	-1.72	Cn1c(NCc2ccco2)nc2c1c(=O)n(Cc1ccc(Br)cc1)c(=O)n2C
0.46	-0.72	CCc1nn(CC(=O)NCc2ccccc2Cl)c(=O)c2cccn12
0.36	0.14	O=C(NCc1ccccc1F)c1ccc2c(c1)OCCO2
0.17	0.61	CC1CCC/C(=N/Nc2ccc([N+](=O)[O-])cc2[N+](=O)[O-])C1 (stereo not given)

Single records, as listed above.
N/C(Cc1ccc(Cl)cc1Cl)=N\OC(=O)c1ccccc1F across the screens: KCNQ2 enhance = 1.87; KCNQ2 enhance baseline = -0.92
CCCN(C(=O)COC(=O)CCOc1ccc(C)cc1)c1c(N)n(Cc2ccccc2)c(=O)[nH]c1=O across the screens: KCNQ2 enhance = 1.02; KCNQ2 enhance baseline = -0.51

(next part)
KCNQ2 enhance	KCNQ2 enhance baseline	SMILES
0.19	-0.03	Cc1ccc(-c2nc3cc(C)ccc3o2)cc1
0.81	-0.16	COC(=O)c1oc2ccccc2c1NC(=O)/C=C/C(=O)O
0.01	1.76	C#CCOCCOCCOCCNc1nc(N2CCN(C(=O)Cn3cc(CC(C)O)nn3)CC2)nc(N2CCN(C(=O)Cn3cc(CC(C)O)nn3)CC2)n1 (stereo not given)
0.88	0.05	O=C(NC(=S)N1CCOCC1)C12CC3CCC(CC(C3)C1)C2
1.48	-1.82	Cc1nn(Cc2ccc(Cl)cc2)c(C)c1NC(=O)CSc1n[nH]c(C)c1[N+](=O)[O-]
0.2	-2.18	O=C(O)c1ccc(N/N=C/c2cc3c(cc2[N+](=O)[O-])OCO3)cc1
0.59	-0.74	O=C1OCCC1S(=O)(=O)c1ccc2ccccc2c1 (stereo not given)
0.25	1.8	COCCN1CN(S(=O)(=O)c2ccccc2)c2nc3ccccc3nc21
0.73	-2.56	CC(C)CSc1ncnc2c1oc1nc3c(cc12)COC(C)(C)C3
0.27	2.11	N#C/C(=C/c1ccc(O)c(O)c1)c1nc2ccccc2[nH]1
0.67	1.12	COCCn1c(C)cc(C(=O)COC(=O)CCS(=O)(=O)c2ccc(C)cc2)c1C
0.75	-0.69	Cc1ccc2c(c1)C1CN(C)CCC1N2C(=O)c1ccc(Cl)c(S(=O)(=O)N2CCOCC2)c1 (stereo not given)
0.14	-0.87	CCC(=O)Nc1ccc2c(c1)nc(CCNC(=O)c1ccco1)n2C
0.21	-1.04	CS(=O)(=O)N1CCN(c2ccccc2NC(=O)c2cc3ccccc3o2)CC1
0.66	-0.09	Cc1ccc(NC(=O)C(C)N2C(=O)C3C4CC(C(Br)C4Br)C3C2=O)cc1 (stereo not given)

Retrieved by structure from above:
KCNQ2 enhance	KCNQ2 enhance baseline	SMILES
0.21	-1.04	CS(=O)(=O)N1CCN(c2ccccc2NC(=O)c2cc3ccccc3o2)CC1
0.19	-0.03	Cc1ccc(-c2nc3cc(C)ccc3o2)cc1

Continued:
KCNQ2 enhance	KCNQ2 enhance baseline	SMILES
0.06	-0.11	CCC(=O)c1ccc(N2CCN(C(=O)COc3ccccc3F)CC2)c(F)c1
0.95	-2.34	Cc1cccnc1NC(=O)CCc1nnc2ccc(N3CCC4(CC3)OCCO4)nn12
0.45	-1.6	NC(=O)Cn1c(=O)n(CC(=O)N2CCCCC2)c(=O)c2sccc21
0.45	0.81	Cc1ccc(SCC(=O)Nc2ccc(N3CCOCC3)cc2)cc1
1.51	-1.81	O=C(NNC(=O)c1ccccc1Br)c1ccc(Cl)c(Cl)c1
0.4	-1.73	O=C(Cc1coc(-c2ccc(F)cc2)n1)N1CCOCC1

Source: PubChem (Johns Hopkins Ion Channel Center)
